Source: PubChem
miR-21 FLuc: raises the signal of a miR-21 reporter; HeLa miR-21 FLuc reporter, luciferase, 48 h; Potency, µM (highest dose often 38.3 µM), inactives show at the highest dose reporter change, positive = more light; 340,000 tested, under 10 active; AID 2288; active = well fitted rising curve with a large enough effect; inconclusive = small, poorly fitted or top-dose-only effect; inactive = no such curve, though single readings can be large or run the other way;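 further: % of control where 0% means no effect; miR-21 action dims this reporter so a rising signal means less miR-21 action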
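HeLa cells endogenously expressing miR-21, stably carrying CMV-driven firefly luciferase with a downstream miR-21 binding site, 2000 cells/well. Titrations up to approximately 40 uM, 48 hours; luciferase luminescence read.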
GLA inh pH 4.5: alpha-galactosidase A (human) inhibition, pH 4.5 | P06280 | purified enzyme, 4-MU-alpha-Gal fluorescence, pH 4.5 | activity change, negative = inhibition, % at 105 µM | 230,000 tested, under 10 active | AID 1467; inconclusive = small, poorly fitted or top-dose-only inhibition, or a rising curve; inactive = flat fitted curve, though single readings scatter; no compound was filed as active;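 further: 0% = full activity with enzyme and -100% = basal without enzyme; dose as in the result columns while the protocol names 77 µM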
Rango-impB inh: prevents formation of the Rango-importin beta complex | Q14974 | Rango CFP/YFP FRET sensor + importin beta, 45 min | Potency, µM (series often up to 92.2 µM), inactives show top-dose inhibition of complex formation | 340,000 tested, 0.031% active | AID 540263; active = rising FRET ratio curve, often small or poorly fitted; inconclusive = mostly compound fluorescence or quenching in the first reads; inactive = flat curves in all reads;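 further: potency means the concentration at half of the fitted maximal effect; 0% = DMSO wells and 100% = buffer wells lacking importin beta; nearly all actives have a fitted effect of over 15% in size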
Target sequence (Q14974 whole entry, looked up): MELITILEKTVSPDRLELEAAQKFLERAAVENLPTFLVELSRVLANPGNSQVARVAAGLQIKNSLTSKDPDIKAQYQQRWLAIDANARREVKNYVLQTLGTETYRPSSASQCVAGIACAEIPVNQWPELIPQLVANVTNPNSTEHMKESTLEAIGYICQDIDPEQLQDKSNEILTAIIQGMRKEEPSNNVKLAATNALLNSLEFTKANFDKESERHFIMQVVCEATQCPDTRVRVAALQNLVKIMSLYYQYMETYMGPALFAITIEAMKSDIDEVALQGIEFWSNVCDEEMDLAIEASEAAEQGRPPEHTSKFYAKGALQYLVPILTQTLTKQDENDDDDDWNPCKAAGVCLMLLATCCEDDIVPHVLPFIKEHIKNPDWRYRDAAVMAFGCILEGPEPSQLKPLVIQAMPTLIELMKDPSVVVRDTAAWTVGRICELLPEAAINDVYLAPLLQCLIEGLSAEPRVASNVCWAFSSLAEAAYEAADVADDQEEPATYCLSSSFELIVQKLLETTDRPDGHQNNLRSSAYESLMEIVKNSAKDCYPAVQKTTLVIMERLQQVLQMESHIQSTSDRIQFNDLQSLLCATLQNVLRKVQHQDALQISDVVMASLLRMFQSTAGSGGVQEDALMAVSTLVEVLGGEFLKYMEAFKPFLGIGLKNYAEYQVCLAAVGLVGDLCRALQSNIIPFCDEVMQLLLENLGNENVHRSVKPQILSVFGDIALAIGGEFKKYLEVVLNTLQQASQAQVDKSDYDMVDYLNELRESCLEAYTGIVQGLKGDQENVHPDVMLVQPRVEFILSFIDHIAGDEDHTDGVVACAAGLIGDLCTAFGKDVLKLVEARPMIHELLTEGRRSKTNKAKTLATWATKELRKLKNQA
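FRET biosensor (snurportin 1 IBB flanked by EYFP and cerulean), 50 nM, with compound 5 min, then 0.125 microM importin beta in PBS, 1 mM DTT, 0.02% Tween-20, 0.1% BSA. CFP/YFP ratio read after 45 min at room temperature; pre-read flags interference.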
Rango release inh: prevents RanGTP from dissociating the Rango-importin beta complex; 340,000 tested, 0.071% active; Biochemical FRET Rango-importin beta, RanGTP-induced dissociation; AID 540253; Potency, µM (highest dose often 46.1 µM), for inactives: top-dose activity change, negative = inhibition; O95149+P62826; active means falling FRET ratio curve, often poorly fitted, with flat reads before Ran was added; inconclusive means other falling curves, or compound fluorescence or quenching; inactive means flat or rising ratio curve;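 further: potency means the concentration at half of the fitted maximal effect; % of control where 0% means no effect; nearly all actives have a fitted effect of over 45% in size; -100% = wells without RanGTP and RCC1; the record marks most hits as doubtful in a second field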
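Two FRET readings bracket the reaction: one 5 min after compound meets Rango–importin beta, another 45 min after RanGTP-RCC1 (0.6 uM Ran, 0.2 uM RCC1, 2 mM GTP) is added. Only the second defines inhibition.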
Active calls of the source: *; ? = inconclusive; / = not tested or not shown. An excerpt; rates above refer to the full screens.

The first two records, ahead of the listing:
miR-21 FLuc,GLA inh pH 4.5,Rango-impB inh,Rango release inh,SMILES
3%,4,-0.7%,5%,CCOC(=O)c1ccc(S(=O)(=O)N2CCN(CC(=O)NC(=O)NC3CCCCC3)CC2)cc1
/,/,-1.1%,-14%,Cc1ccc(C(=O)NCc2cccc(C(F)(F)F)c2)cc1S(=O)(=O)N1CCCCC1

Results, repeating the preview:
miR-21 FLuc,GLA inh pH 4.5,Rango-impB inh,Rango release inh,SMILES
3%,4,-0.7%,5%,CCOC(=O)c1ccc(S(=O)(=O)N2CCN(CC(=O)NC(=O)NC3CCCCC3)CC2)cc1
/,/,-1.1%,-14%,Cc1ccc(C(=O)NCc2cccc(C(F)(F)F)c2)cc1S(=O)(=O)N1CCCCC1
-17%,2,?,3%,CCOC(=O)/C(C#N)=C/C=C1\C=Cc2ccccc2N1CC
/,/,?,?,CSc1nc(N2CCOCC2)nc2ccc(C)cc12
-25%,-20,2.2%,-5%,CCN(CC)c1ccc(/C=N/NC(=O)CC(C)C)cc1
-5%,-5,-3.3%,-7%,Cc1onc(-c2ccccc2)c1CNC(=O)C1COc2ccccc2O1 (stereo not given)
-13%,7,1.7%,8%,COc1ccccc1C(=O)C1CCCN(C(=O)c2cn3cc(Cl)ccc3n2)C1 (stereo not given)
-2%,0,0.0%,-5%,CSc1ccccc1NC(=O)C1CCCO1 (stereo not given)
-1%,/,3.5%,8%,CC(C)S(=O)(=O)C1=NSC2=NC(=O)/C(=C\c3ccc(OC(=O)c4ccco4)cc3)C(=N)N21
-7%,/,2.9%,-4%,CSc1ncccc1C(=O)Nc1cc(C)ccn1
0%,-2,0.6%,-9%,COc1ccc(-n2c(COc3ccc(C)cc3)nnc2SCC(N)=O)cc1
-9%,-12,0.3%,-9%,CCSc1nc2ccccc2n1C(=O)Oc1ccccc1
0%,-4,/,/,CCn1cc(C(=O)NCc2ccc(OC)cc2OC)c(=O)c2ccc(C)nc21
0%,-5,-2.0%,13%,COCCNC(=O)CN1CCC(NC(=O)C(C)(C)C)CC1
-25%,-7,0.7%,0%,CCNC(=S)N/N=C(\C)c1cc2ccccc2o1

Random excerpt: 5 entries already listed, in no set order.
miR-21 FLuc,GLA inh pH 4.5,Rango-impB inh,Rango release inh,SMILES
/,/,-1.1%,-14%,Cc1ccc(C(=O)NCc2cccc(C(F)(F)F)c2)cc1S(=O)(=O)N1CCCCC1
-17%,2,?,3%,CCOC(=O)/C(C#N)=C/C=C1\C=Cc2ccccc2N1CC
0%,-4,/,/,CCn1cc(C(=O)NCc2ccc(OC)cc2OC)c(=O)c2ccc(C)nc21
-7%,/,2.9%,-4%,CSc1ncccc1C(=O)Nc1cc(C)ccn1
-9%,-12,0.3%,-9%,CCSc1nc2ccccc2n1C(=O)Oc1ccccc1

Record cards, as listed above. Screens in order: miR-21 FLuc, GLA inh pH 4.5, Rango-impB inh, Rango release inh
Entry for `CSc1ccccc1NC(=O)C1CCCO1` (stereo not given) → -2%, 0, 0.0%, -5%
Entry for `COc1ccccc1C(=O)C1CCCN(C(=O)c2cn3cc(Cl)ccc3n2)C1` (stereo not given) → -13%, 7, 1.7%, 8%

More results follow.
miR-21 FLuc,GLA inh pH 4.5,Rango-impB inh,Rango release inh,SMILES
-4%,2,6.5%,27%,CCCn1c2c(c(O)c(C(=O)NC)c1=O)CCCC2
-2%,3,-0.9%,-10%,C=CCOC(=O)C1=C(C)Nc2nnnn2C1c1cccs1 (stereo not given)
-8%,3,3.7%,3%,O=C(NCc1ccco1)c1ccc2snnc2c1
-30%,1,-3.7%,12%,c1ccc(COc2ccc(OCCCCN3CCCC3)cc2)cc1
/,/,4.5%,-3%,Cc1ccc(SCC(=O)OCC(=O)N2CCN(C(=O)c3ccco3)CC2)c(C)c1
/,/,-0.3%,-2%,Cc1ccc(C(C)C)c(OCC(=O)NNCC(=O)Nc2cccc(F)c2)c1
-55%,12,-0.4%,-2%,COc1ccc(C(=O)/C(=C/N(C)C)S(=O)(=O)c2ccccc2)cc1
-32%,8,-0.8%,24%,COC(=O)c1[nH]c2ccc(C)cc2c1NC(=O)Nc1ccc(OC)cc1
/,/,-4.9%,1%,O=C(c1cccc(Br)c1)N1CCN(c2ccc(N3CCOCC3)nn2)CC1
/,/,-0.9%,-1%,CC(=O)N1CCN(C(=O)c2ccc(NS(=O)(=O)c3ccc4[nH]c(=O)[nH]c4c3)cc2)CC1
-1%,-12,-3.8%,0%,Cc1ccc(S(=O)(=O)NCCC(=O)Nc2ccc(Cl)c(Cl)c2)cc1C
-13%,/,4.4%,-17%,COc1ccccc1C(=O)NCCC(=O)Nc1ccc(OC(F)(F)F)cc1
/,/,5.0%,?,O=C(COc1ccc(F)cc1Br)NCCCN1CCCC1=O
/,/,0.3%,22%,O=C(O)c1ccc(C=NNC(=O)c2ccccc2NS(=O)(=O)c2cccs2)cc1
?,0,-2.9%,-10%,O=C(NC(=C(Cl)Cl)S(=O)(=O)c1ccc(Cl)cc1)c1ccccc1
-2%,-4,-0.7%,0%,CCOC(=O)c1ccc(NS(=O)(=O)c2ccc3c(c2)oc(=O)n3C)cc1
/,/,?,0%,CSC(C(=O)c1cc2ccccc2o1)c1ccccc1 (stereo not given)
/,/,0.5%,19%,COc1ccc(S(=O)(=O)N2CCN(C(=O)c3cc(C)oc3C)CC2)cc1OC
1%,/,-1.5%,-7%,CN(CC(=O)NCc1ccncc1)S(=O)(=O)c1cc(Cl)ccc1Cl
-5%,/,-4.7%,-15%,Cc1cc(C)cc(NC(=O)C2CCC(CNC(=O)[C@@H]3Cc4ccccc4CN3)CC2)c1 (stereo not given in full)
-2%,-2,1.2%,-1%,Cc1c(NC(=O)C23CC4CC(CC(C)(C4)C2)C3)c(=O)n(-c2ccccc2)n1C
5%,10,-0.1%,0%,CC(=O)NCC(=O)N1CCCC(C(=O)c2ccc3c4c(cccc24)CC3)C1 (stereo not given)
/,/,2.0%,-5%,COc1cc(NC(=O)CC(C)C)ccc1NC(=O)c1ccco1
/,/,-1.9%,6%,O=C(CSc1nnc2ccc(-c3cccnc3)nn12)Nc1ccc(F)cc1
-76%,/,0.7%,?,Fc1ccc(OCc2cc(-c3ccccc3)no2)cc1
23%,-8,-5.3%,25%,Cc1noc(C)c1COc1cccc(C(=O)N2CCN(C/C=C/c3ccccc3)CC2)c1
16%,5,0.2%,10%,CSc1cccc(NC(N)=S)c1
/,/,-4.8%,9%,CN(C)S(=O)(=O)c1cccc(NC(=O)c2ccc(-n3cncn3)c([N+](=O)[O-])c2)c1
-2%,/,4.7%,-25%,Cc1nnc(SC(C)C(=O)Nc2sc3c(c2C#N)CCCC3)[nH]c1=O (stereo not given)
0%,4,/,/,Cc1cc2ccccc2n2c(SCC(=O)N3CCN(C(=O)c4ccco4)CC3)nnc12
-4%,4,-0.7%,-8%,N#Cc1cn(OCc2ccccc2)c(=O)[nH]c1=O
1%,-21,0.4%,2%,Cc1c(C(=O)N2CC3(CC(c4cccc(NC(=O)CC(c5ccccc5)c5ccccc5)c4)=NO3)C[C@@H]2C(N)=O)cc([N+](=O)[O-])cc1[N+](=O)[O-] (stereo not given in full)
16%,/,-0.3%,-14%,O=C(CN1CCN(Cc2cccc(F)c2)CC1)NCc1ccccc1
1%,-17,0.4%,2%,O=C(Cn1cc(C(=O)c2cccs2)c2ccccc21)NCC1CCCO1 (stereo not given)
-4%,5,/,/,COc1ccc(C2c3c(oc4ccc(Cl)cc4c3=O)C(=O)N2Cc2ccco2)cc1OC (stereo not given)
/,/,0.1%,33%,O=c1[nH]nc(N=Nc2c(O)[nH]c3ccc(F)cc23)c(=O)[nH]1
4%,3,2.6%,-8%,Cc1noc(C)c1CN1C(=O)NC2(CCCCCCC2)C1=O
-27%,-3,2.7%,-5%,CCNC(=O)CCSc1nc2cc(Cl)ccc2o1
-2%,/,-1.4%,-6%,CN(C)C(CNC(=O)c1ccc(NS(=O)(=O)c2cccc([N+](=O)[O-])c2)cc1)c1ccco1 (stereo not given)
-23%,3,-0.2%,-5%,O=C(NCCN1C(=O)S/C(=C\c2ccccc2F)C1=O)C1CCN(S(=O)(=O)c2cccs2)CC1
/,/,?,9%,CCOC(=O)c1c2c(n(-c3ccc(OC)cc3)c1C)C(=O)C(=O)c1ccccc1-2
1%,5,-5.3%,-3%,CCOC(=O)C1CCN(C(=O)Cn2cc(C(=O)C3CC3)c3ccccc32)CC1
-34%,7,-2.9%,11%,C=CCn1c(NCc2ccccc2)nc2ccccc21
/,/,-0.2%,-1%,COc1ccccc1C(C)Nc1ccc(S(=O)(=O)N2CCN(C)CC2)cc1[N+](=O)[O-] (stereo not given)
-22%,-5,?,-1%,O=C(/C=C/c1ccc(Cl)cc1Cl)Nc1cccc(S(=O)(=O)NC2=NCCCCC2)c1
-2%,-8,-1.5%,-8%,CN(C)CCOC(=O)C12CC3(C)CC(C)(CC(C)(C3)C1)C2
-2%,-3,4.3%,3%,O=C(NN1CCCCC1)c1ccc(COc2ccc(Cl)cc2)cc1
/,/,-1.7%,-6%,Cc1cccc(C(=O)NCC(=O)OCc2nc(N)nc(Nc3ccccc3C)n2)c1
/,/,2.1%,-3%,CC(C)CC1NC(=O)N(CC(=O)Nc2ccc3c(c2)OCCO3)C1=O (stereo not given)
/,/,?,2%,C[C@H](CO)N1C[C@H](C)[C@@H](CN(C)C(=O)Nc2ccc(C(F)(F)F)cc2)Oc2ccc(NC(=O)NC3CCCCC3)cc2C1=O
-4%,-3,3.8%,-5%,O=C(CSc1nccn1-c1ccc(Cl)cc1)NCc1ccc2c(c1)OCO2
-8%,/,-3.5%,13%,CCOC(=O)N1CCN(C(=O)CNC(=O)c2nn(-c3ccc(OC)c(Cl)c3)c(=O)c3ccccc23)CC1
-6%,/,-0.9%,12%,CC(C)Sc1nc2c(c(=O)[nH]c(=O)n2C)n1Cc1ccccc1
0%,/,5.2%,-5%,Cc1c(NC(=O)COc2ccc(C(C)C)cc2)c(=O)n(-c2ccccc2)n1C
/,/,-1.5%,1%,CC1(c2ccccc2)NC(=O)N(CC(=O)Nc2ccc(N3CCOCC3)cc2)C1=O (stereo not given)
-3%,-5,2.2%,-14%,CCCCCN1C(C)=CC(=C(C#N)C#N)C=C1C
6%,1,3.7%,1%,COc1ccc(C(=O)COC(=O)/C=C/c2ccc(S(=O)(=O)Nc3cccc(S(N)(=O)=O)c3)cc2)cc1
-6%,1,?,?,CC1(C)Cc2c(C#N)c(N3CCN(C(=O)c4ccco4)CC3)nc(-c3ccco3)c2CS1
1%,/,0.5%,0%,O=C(Nc1ccc(N2CCOCC2)cc1N1CCOCC1)c1ccc(Cl)cc1
-10%,-4,1.5%,-10%,O=C(Nc1ccccc1Cl)N1CCn2c(nc3ccccc32)C1

Going on with the list.
miR-21 FLuc,GLA inh pH 4.5,Rango-impB inh,Rango release inh,SMILES
-8%,-4,0.4%,-2%,COC(=O)c1cn(NC(=O)C2CCCO2)c(=O)c2ccccc12 (stereo not given)
-1%,/,5.2%,4%,Cc1ccc(NC2CCCN(C(=O)c3cc4ncccn4n3)C2)cc1C (stereo not given)
-1%,-13,-1.1%,-7%,O=C(CCCSc1nc2ccccc2[nH]1)NCc1ccco1
?,10,0.4%,5%,C=CCNc1nnc(SC2CC(=O)N(c3ccc(OCCC)cc3)C2=O)s1 (stereo not given)
-1%,-3,?,?,CSc1ccc(C2C(C#N)=C(N)Oc3c2ccc(=O)c2c(C)oc(C)c32)cc1 (stereo not given)
-4%,8,3.3%,-10%,Cc1cc(C)cc(NC(=O)C2CCCC2)c1
-19%,/,-2.9%,3%,C(=N\Nc1ccccn1)/c1cccnc1
0%,1,-2.1%,-17%,CC(/C=N/NC(=O)Cn1cnc2c1c(=O)n(C)c(=O)n2C)=C\c1ccco1
-12%,1,4.6%,-2%,Cc1ccc2c(c1)N(CC(=O)NCc1cccs1)C(=O)CO2
0%,5,0.2%,6%,COC(=O)c1c(C(=O)OC)c(-c2ccc(C)cc2)n2c1CS(=O)(=O)C2
-3%,8,-1.9%,10%,CNC(=S)NNC(=O)Cn1ccc(C)n1
/,/,3.5%,-1%,CN[C@@H](C)C(=O)NC[C@H]1O[C@@H](n2cnc3c(N)ncnc32)[C@H](O)[C@@H]1O
/,/,-0.4%,8%,O=C(Nc1ccc(F)cc1)C1CCCN(C2=NS(=O)(=O)c3ccccc32)C1 (stereo not given)
-2%,4,?,?,CCOC(=O)CCc1c(C)c(C#N)c2nc3ccccc3n2c1-n1cnc2ccccc21
